UCH37 DUB inh = human UCH37 deubiquitinating enzyme inhibition. purified proteasome/UCH37, Ub-AMC cleavage fluorescence. inhibition, % (concentration not given with the values). actives 0.33% (n = 330,000). Q9Y5K5;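 active = mean of two replicates above 20%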;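 also: 0% = compound-free wells with enzyme and 100% = wells lacking proteasome; stock transfer was 100 nL into about 20 µL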
Target sequence (Q9Y5K5 whole entry, looked up): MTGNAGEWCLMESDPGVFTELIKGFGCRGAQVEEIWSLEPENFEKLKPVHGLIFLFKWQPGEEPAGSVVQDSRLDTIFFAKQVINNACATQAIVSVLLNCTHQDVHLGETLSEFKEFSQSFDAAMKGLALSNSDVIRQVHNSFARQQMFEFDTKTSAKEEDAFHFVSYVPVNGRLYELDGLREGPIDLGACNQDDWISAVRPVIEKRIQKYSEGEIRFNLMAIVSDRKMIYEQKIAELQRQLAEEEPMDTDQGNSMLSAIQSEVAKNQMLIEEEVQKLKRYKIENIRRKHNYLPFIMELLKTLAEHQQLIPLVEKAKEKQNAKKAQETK
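Material: Human UCH37 enzyme supplied as purified proteasome complex | Schedule: 30 min compound-proteasome preincubation then 25 min substrate reaction, room temperature | Detection: AMC fluorescence from Ub-AMC cleavage, excitation 355 nm, emission 460 nm | Benchmarks: Wells without proteasome as full block, compound-free enzyme plus substrate as uninhibited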
LANA-H2A inh = blocks KSHV LANA binding to histone H2A/H2B. actives 0.6% (n = 320,000). Q9QR71. inhibition, % (no concentration beside the values). AID 2629. cell-free LANA-H2A/H2B peptide, fluorescence polarization; in the data active = inhibition mostly above about 10%, no sharp cut-off; inactive = mostly below about 6.7%;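 also: stock transfer was 7.5 nL into about 10 µL; 0% = median of vehicle wells and 100% = median of positive control wells; one replicate is shown; the record names a cut of 25% in any replicate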
Vif A3G = inhibitors of Vif binding to APOBEC3G peptide, primary screen, biochemical, TR-FRET, GST-Vif 1-94, biotin-A3G peptide, dose response retest (AID 1117319); TR-FRET GST-Vif / biotin-A3G peptide binding; higher % means a stronger effect; test concentration not given here; strong numbers were not always called active; inhibition, %; hits with a dose series show IC50 in µM; actives 0.57% (n = 260,000);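 active = above the screen mean plus three standard deviations and confirmed in dose response; inconclusive = results disagree or hit not tested in dose response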;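 also: Vif residues 1-94 fused to GST binding biotinylated APOBEC3G peptide 110-148; 0% = full assay without inhibitor and 100% = GST in place of GST-Vif; retest series ran down from 100 µM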
B2AR ag = human beta-2 adrenergic receptor agonism by FAP. P07550. Am2.2-beta2AR cells, FAP receptor internalization, flow cytometry; reference of the scale not given here. response, % (concentration not given with the values). actives 0.43% (n = 340,000). AID 504454;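 active = response above a set limit, near 3 SD of response in nonfluorescent compounds, cut at about 42% in these data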;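 also: stock transfer was 100 nL into about 11 µL; a reference agonist was the positive control; negative values mostly stem from fluorescent compounds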
Target sequence (P07550 whole entry, looked up): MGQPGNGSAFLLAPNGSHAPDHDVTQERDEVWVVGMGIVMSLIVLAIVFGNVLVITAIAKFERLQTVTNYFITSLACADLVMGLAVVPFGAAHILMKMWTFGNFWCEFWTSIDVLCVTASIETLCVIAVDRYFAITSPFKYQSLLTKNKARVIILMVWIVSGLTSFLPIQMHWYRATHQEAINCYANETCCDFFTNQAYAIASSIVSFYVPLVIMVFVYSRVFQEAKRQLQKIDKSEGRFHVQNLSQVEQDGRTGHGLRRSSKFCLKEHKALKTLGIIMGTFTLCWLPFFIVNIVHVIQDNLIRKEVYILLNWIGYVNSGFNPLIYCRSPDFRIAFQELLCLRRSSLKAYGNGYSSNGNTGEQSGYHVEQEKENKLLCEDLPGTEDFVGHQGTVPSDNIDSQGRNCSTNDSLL
A1 inh = inhibitors of the anti-apoptotic protein A1, read as caspase activation; MEF A1-2A-BIM cells, Caspase-Glo 3/7 luminescence, 3 h; percent of clofoctol response, vehicle zero; actives 0.066% (n = 330,000); caspase activation, % (concentration not given with the values);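 active = over half of replicate activation scores above 10%, or exactly half above 10 with the replicate mean above 10; inconclusive = replicate mean below 10 yet half the replicates above 10; inactive = over half of replicates below 10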;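 also: wells of about 30 µL received 50 nL stock; many hits fall short of the cut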
Ecoli growth = E. coli growth inhibition | actives 0.21% (n = 330,000) | AID 1053175 | OD600 absorbance (no concentration beside the values) | Escherichia coli growth, OD600, 23 h; hits give low values;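 active = OD600 absorbance below the run mean of sample wells minus 3.6 SD, in any replicate, cut at about 0.56 in these data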;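 also: stock transfer was 300 nL into about 60 µL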
HNF4A DNA FP = change in binding of human HNF4 alpha to DNA | P41235 | HNF4a-FITC DNA binding, fluorescence polarization, 1 h | activity change, % at 10 µM | actives 0.3% (n = 360,000) | AID 1224865; in the data active = activity change above about 30%, passing the limit was not always enough;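 also: controls were the assay level and a saturating level of protein; the project sought stronger binding though the title names inhibitors; some compounds called inactive have numbers as strong as hits; positive values seem to mean higher polarization but the record does not say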
* hit, by the source's call; ? = inconclusive; . = no result given; & = joins results of further samples.

SMILES	UCH37 DUB inh	LANA-H2A inh	Vif A3G	B2AR ag	A1 inh	Ecoli growth	HNF4A DNA FP
COC(=O)c1ccc(C2CC(=O)NC3=C2C(=O)CCC3)cc1 (stereo not drawn)	0.3	1.1	2%	0	-0.4	0.8	-0.8
CCOC(=O)C1CCN(C(=O)COc2ccc(N(C)S(=O)(=O)c3ccc(OCC)cc3)cc2)CC1	3.2	-5.9	.	4	0.4	0.68	-1.1
O=C(NCCCCc1ccccc1)C1CC(c2cccc([N+](=O)[O-])c2)=NO1 (stereo not drawn)	-0.3	8.4	-2%	2	0.1	0.58	-2.5
COC(=O)Nc1ccc(C)c2nsnc12	1.0	0.9	71%	-1	0.1	0.64	2.1
CCC(C)c1ccc(N(CC(=O)NC(C)(C)C)C(=O)CNC(=O)c2cccs2)cc1 (stereo not drawn)	2.7	2.0	-3%	-3	-0.2	0.71	-0.5
COc1ccccc1NC(=O)C[n+]1ccccc1C	1.1	-1.8	.	-5	-0.3	0.63	-6.5
CC(C)C(NC(=O)C1CCCCC1)C(=O)NC1=NCCS1 (stereo not drawn)	0.1	-2.2	6%	-4	0.2	0.68	-4.2
COc1ccc(/C=N/Nc2nnc(Cc3ccccc3)c(=O)[nH]2)cc1OC	.	-0.7	.	10	-3.4	.	4.9
Nc1ccccc1N=c1ssnc1Cl	-17	.	6%	-15	.	0.69	-5.9
CCCNc1c(F)c(F)c2c(C)c3ccccc3nc2c1F	1.1	-1.0	?	-118	-0.3	0.73	-60
O=[N+]([O-])c1nn(-c2ccc(Cl)cc2)n(O)c1=NCc1ccccc1Cl	4.1	0.0	-2%	-1	-0.3	0.6	-1.0
COCC(C)NS(=O)(=O)c1ccc(C(=O)NC(Cc2ccccc2)c2ccccc2)cc1 (stereo not drawn)	.	2.6	8%	-8	-0.2	.	-0.5

The closing 7 compounds of the section before lead into the next:
SMILES	UCH37 DUB inh	LANA-H2A inh	Vif A3G	B2AR ag	A1 inh	Ecoli growth	HNF4A DNA FP
COc1ccccc1NC(=O)C[n+]1ccccc1C	1.1	-1.8	.	-5	-0.3	0.63	-6.5
CC(C)C(NC(=O)C1CCCCC1)C(=O)NC1=NCCS1 (stereo not drawn)	0.1	-2.2	6%	-4	0.2	0.68	-4.2
COc1ccc(/C=N/Nc2nnc(Cc3ccccc3)c(=O)[nH]2)cc1OC	.	-0.7	.	10	-3.4	.	4.9
Nc1ccccc1N=c1ssnc1Cl	-17	.	6%	-15	.	0.69	-5.9
CCCNc1c(F)c(F)c2c(C)c3ccccc3nc2c1F	1.1	-1.0	?	-118	-0.3	0.73	-60
O=[N+]([O-])c1nn(-c2ccc(Cl)cc2)n(O)c1=NCc1ccccc1Cl	4.1	0.0	-2%	-1	-0.3	0.6	-1.0
COCC(C)NS(=O)(=O)c1ccc(C(=O)NC(Cc2ccccc2)c2ccccc2)cc1 (stereo not drawn)	.	2.6	8%	-8	-0.2	.	-0.5
Cc1cccc(N2CCN(C(=O)CCC(=O)N3CC(C)Oc4ccccc43)CC2)c1C (stereo not drawn)	5.2	4.3	.	24	0.1	0.76	1.9
Cc1ccc(NC(=O)CN2CCc3ccccc3C2)cc1S(=O)(=O)N(C)C	2.3	-1.1	2%	9	-0.9	0.62	-0.3
C=CCNC(=O)c1oc2ccc(S(=O)(=O)N3CCC4(CC3)OCCO4)cc2c1C	1.4	2.5	-1%	-2	-0.2	0.68	-4.6
COc1ccccc1NS(=O)(=O)c1cc2c(cc1C)NC(=O)CO2	6.0	-5.8	.	2	-0.1	0.8	-1.2
C=CCNCC(=O)NN=C(c1ccccc1)c1ccccc1	0.5	1.4	23%	2	-0.1	0.79	-4.8
CC(Cl)C(=O)NC(=O)NC12CC3CC(CC(C3)C1)C2 (stereo not drawn)	1.1	-3.2	15%	2	0.1	0.67	-0.4
COC(=O)[C@@H](NC(=O)Nc1cccc(OC)c1)C(C)C	3.3	1.3	0%	1	0.0	0.72	-2.0
CC(C)c1ccc(NC(=O)CSc2nc(-c3ccccc3F)nc3nc[nH]c23)cc1	-1.4	2.7	.	1	0.3	0.71	7.3
Cc1ccc2nc(SCC(=O)NC3CCS(=O)(=O)C3)[nH]c2c1 (stereo not drawn)	-3.5	-2.4	.	-3	-0.5	0.65	0.6
FC(F)(F)c1cccc(Cn2nnnc2-c2cc(Cl)cc(Cl)c2)c1	2.5	-1.6	30%	-1	0.1	0.68	1.9
CCOC(=O)C1CCN(CC(=O)Nc2c(C(=O)OC)[nH]c3ccccc23)CC1	-5.0	.	-3%	.	.	0.71	.
CSC(=Nc1ccccc1)N=C(SCc1ccccc1)N(C)C	.	.	-11%	18	.	.	0.2
O=C(Nc1ccccc1N1CCN(C(=O)c2ccc(Cl)cc2)CC1)c1ccc2c(c1)OCO2	-1.3	-1.0	0%	0	0.0	0.76	6.3
O=C(CN1CCN(S(=O)(=O)c2cc(C(F)(F)F)ccc2Cl)CC1)N1CCc2ccccc2C1	6.1	1.2	-11%	3	-0.3	0.68	-5.0
Cc1ccc2nc(-c3ccc(NC(=O)c4ccco4)cc3)[nH]c2c1	-53	-0.8	-8%	-6	-7.2	0.72	2.4
CCOc1ccc(CNc2ccc3c(c2)ncn3C(C)(C)C)cc1	-1.4	1.3	-3%	-4	2.2	0.63	1.1
CC(C)OCCCNc1ncnc2c1[nH]c1ccc(F)cc12	-13	1.5	30%	17	-1.5	0.64	-0.3
COc1ccc(C2CC(=O)C3=C(C2)NC(C)=C(C#N)C3c2ccc(N(C)C)cc2)cc1 (stereo not drawn)	3.9	-3.1	23%	-9	1.0	0.69	10
CCOc1ccc(NC(=O)Nc2cc(C)ccc2OC)cc1	0.9	1.7	4%	9	-6.7	0.7	3.1
CCCCC(C(=O)NC(C)(C)C)N(Cc1ccccc1)C(=O)c1snc(C(N)=O)c1N (stereo not drawn)	-27	-0.3	.	5	0.4	0.63	2.2
CN1CCN(C(=O)C2=C[C@H](c3ccc(Br)cc3)C[C@H](OCCCCO)O2)CC1	0.3	12	4%	-3	0.2	.	1.1
Cc1cc(NC(=O)CCC2COc3ccccc3O2)no1 (stereo not drawn)	2.8	2.0	-6%	21	0.2	0.79	-1.2
COc1ccc(C(C)=O)cc1COC(=O)c1cccc(N(C)C)c1	-29	-0.3	-4%	5	0.5	0.73	-1.1
COc1cc([N+](=O)[O-])cc2sc(NC(=O)C(C)(C)C)nc12	7.1	2.4	.	-1	-0.1	0.7	-0.7
Cc1ccc2c(c1)N(CCCC(=O)NCc1ccc3c(c1)OCO3)C(=O)CO2	3.9	11	.	2	0.7	0.72	2.1
CCOC(=O)C1=C(C)N=C2SCCC(=O)N2[C@@H]1/C=C/c1ccccc1	6.9	2.7	2%	-13	0.3	0.71	5.9
COc1cc([C@@H]2CC=C(C(=O)O)[C@H](c3cccc(Cl)c3)N2S(=O)(=O)c2ccc(C)cc2)cc(OC)c1OC	3.4	0.4	.	-3	-0.1	.	-3.3
Cc1ccc(C(=O)Nc2nc(-c3ccco3)c(-c3ccco3)s2)o1	-20	.	24%	18	.	0.68	-5.5
O=C(COc1ccc([N+](=O)[O-])cc1)N/N=C/c1ccccn1	.	-1.2	21%	-4	0.5	.	1.5
COc1ccc(Cl)cc1NC(=O)C/C(C)=N/NC(=O)c1ccccc1[N+](=O)[O-]	.	4.4	.	-6	-1.1	.	5.2
CCOC(=O)CC(NC(=O)c1ccco1)c1ccc(C)cc1 (stereo not drawn)	1.8	-2.0	?	1	1.1	0.69	3.1
CCCCn1c(CNC(C)=O)nc2ccccc21	1.6	2.4	-4%	-9	0.3	0.69	-2.3
COc1ccc(SCCN2CC[C@@H](NC(=O)OCc3ccccc3)CCC2=O)cc1	1.3	-0.9	.	-5	-1.0	.	3.5
NC1=C(Br)C(=O)c2ccccc2C1=O	34*	3.7	7%	11	-2.2	0.54	2.7
CCN(CC)C(=O)/C(=C\c1ccc2c(c1)OCO2)NC(=O)c1ccc(Br)cc1	-0.8	-7.6	8%	-3	1.5	.	2.6
COc1cccc(C2=CC(=O)C[C@H](c3ccc(Cl)cc3)C2)c1	0.9	4.1	.	5	-0.2	.	2.5
COc1ccc(Br)cc1CNC(=O)C1CCN(S(=O)(=O)N2CCCCC2)CC1	1.6	-2.8	13%&1%	-7	-0.4	0.67	-1.1
CC(C)Oc1cccc(C(=O)Nc2ccc(Br)cc2F)c1	6.0	-2.8	.	-5	-2.7	0.66	1.3
CC1(C)OC2OC(C(=O)N/N=C/c3ccccc3F)C3OC(C)(C)OC3C2O1 (stereo not drawn)	.	-11	-12%	2	0.0	.	1.3
CCc1nc(NCC(C)C)c(C#N)c2c1COC(C)(C)C2	-99	-6.4	4%	5	-0.9	0.7	1.4
COc1ccc(C(=O)NC2(C(F)(F)F)C(=O)N(Cc3ccco3)C3=C2C(=O)CC(C)(C)C3)cc1OC (stereo not drawn)	1.7	2.0	4%	25	0.1	0.64	-1.3
CCO[C@@H]1OC(C(=O)NCc2ccccc2)=C[C@H](C2CCCCC2)[C@H]1CCCO	0.9	-3.3	-4%	6	0.5	.	-4.6
CC(=O)Oc1ccccc1N(C(C)=O)S(=O)(=O)c1cccc([N+](=O)[O-])c1	4.7	-2.2	13%	-3	-0.5	0.66	-3.1
O=C(CCC1CCCN(C(=O)CC2=CCCCC2)C1)N1CCN(c2ccccn2)CC1 (stereo not drawn)	2.5	8.2	.	6	0.5	0.71	-0.5
O=C(CN(C(=O)c1csnn1)c1ccc(F)c(Cl)c1)NCc1ccccc1	5.6	-0.6	.	-6	0.1	0.66	1.5
COCCN(CCOC)S(=O)(=O)c1ccc(C(=O)Nc2nnc(C)o2)cc1	2.6	-3.3	-8%	7	-0.5	0.75	-2.0
Cc1cc(C)c2c(CN3CCCCC3)cc(=O)oc2c1	2.8	-3.2	.	3	2.5	0.69	-2.2
O=C(NC(=S)N1CCOCC1)C12CCC3CC(CC(C3)C1)C2	5.9	-0.3	-1%	-2	-0.6	0.7	6.0
Oc1ccc(C[C@H]2CNCCN2CCc2cccc3ccccc23)cc1	2.5	-1.9	.	19	0.1	.	1.1
O=C(NNC(=S)Nc1ccccc1)c1cccc(S(=O)(=O)N2CCOCC2)c1	0.4	3.1	.	-8	0.7	0.67	3.7
Cc1cc(-n2c(SCC(=O)Nc3ccc(F)c(F)c3)nc3n[nH]c(C)c3c2=N)ccc1Cl	-20	-2.3	.	8	0.3	0.71	0.2
COc1cc(NC(=O)C2CCCN2S(=O)(=O)c2cccc3cccnc23)cc(OC)c1OC (stereo not drawn)	5.4	2.5	-5%	8	0.0	0.72&0.77	5.1
CCCCc1c(O)n2c(nc3ccccc32)[nH]c1=O	3.0	0.2	-3%	-2	1.2	0.68	2.1
CCOc1ccc(NS(=O)(=O)c2c(C)nc3sccn3c2=O)cc1	-3.2	4.5	.	-4	0.8	0.72	-1.0
COc1ccccc1N(CC(=O)Nc1ccc(Cc2ccncc2)cc1)S(=O)(=O)c1ccccc1	3.1	1.4	.	13	0.2	0.68	-1.5
CCOC(=O)C1(P(=O)(c2ccccc2)c2ccccc2)CCC1	3.7	11	8%	-7	0.5	0.69	0.7
COCCNC(=O)CN(Cc1cccs1)C(=O)CCC(=O)Nc1nccs1	0.8	3.2	-6%	2	-1.0	0.71	3.6
CCN(CC(=O)Nc1c(F)cccc1F)C(=O)C1CCCN(C(=O)c2ccc(Cl)cc2)C1 (stereo not drawn)	1.9	-2.1	.	0	0.9	0.7	-0.7

Screening data: PubChem BioAssay, several laboratories

No enrichment for hits. About 2.1% of those tested had a hit in this group.
